VACV E9 pol inh: blocks vaccinia virus processive DNA synthesis | in vitro processive DNA synthesis, absorbance read-out; hits give low values; some inactives read as strong as hits | normalized absorbance, % (test concentration not listed) | 0.94% of 46,000 active | AID 493162;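 active = replicate mean up to 90% and picked by the depositor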;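 note: 100% = median of the test wells of a plate; 100 nL library stock went into each well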
The depositor's hits bear a star; & = joins results of further samples.

Screening Cc1nc(C#N)c(Nc2ccccc2)o1 returned VACV E9 pol inh 102.0.
For Cc1ccc(Cl)cc1-n1nnc(-c2nc(-c3ccc4c(c3)OCO4)no2)c1N the results were VACV E9 pol inh 108.0.
Screening O=S(=O)(c1ccc(Cl)cc1)N1CCc2ccccc21 returned VACV E9 pol inh 100.3.
For CC1(C)CN(c2cccc(N3CC(C)(C)C3=O)n2)C1=O the results were VACV E9 pol inh 101.4.
For O=C(COC(=O)Cc1cccc(C(F)(F)F)c1)NC1CC1 the results were VACV E9 pol inh 104.4.
CN1C(=O)C(CC(=O)Nc2ccc(F)cc2)N(NC(=O)c2cccc(F)c2)C1=S (stereo not given) was read as VACV E9 pol inh 97.2.
`CC(C)(C)NC1c2cccc3cccc(c23)C1NS(=O)(=O)c1ccccc1` (stereo not given) gave VACV E9 pol inh 99.5.
Cc1ccc2c(c1)N(C(=O)N1CCCC(C(=O)NCCCc3ccccc3)C1)CC(C)O2 (stereo not given) was read as VACV E9 pol inh 93.3.
O=C(NCCC1=CCCCC1)C1CCN(S(=O)(=O)N2CCCC2)CC1 was read as VACV E9 pol inh 73.3.
Screening Cc1ccc(NC(=O)CSc2nnc(NC(=O)CC(C)C)s2)cc1 returned VACV E9 pol inh 96.1.
`O=C(OCC(=O)N1CCCCC1)c1ccccc1I` gave VACV E9 pol inh 92.5.
CCOc1cc2c(cc1OCC)C1C(C(=O)N3CCCCC3)c3ccccc3C(=O)N1CC2 (stereo not given) was read as VACV E9 pol inh 102.2.
`CCN1CSC(=S)N(Cc2ccccc2)C1` gave VACV E9 pol inh 102.9.
`CN1CCN(c2ccc(CNC(=O)c3cccnc3Oc3ccc(Cl)cc3)cc2)CC1` gave VACV E9 pol inh 100.0.
`O=C(CN1CCOCC1)N1CCc2ccccc21` gave VACV E9 pol inh 109.6.
`COC(=O)CNC(=O)c1ccccc1` gave VACV E9 pol inh 98.5.
Screening Cc1c2c(=O)n(-c3nc4ccccc4s3)nc-2cc(O)n1Cc1ccccc1 returned VACV E9 pol inh 96.9.
Screening CCn1c(C)c(C2=CCN(S(=O)(=O)c3ccccc3)CC2)c2ccccc21 returned VACV E9 pol inh 99.3.
Screening O=S(=O)(NCC(O)c1ccccc1)c1ccccc1 (stereo not given) returned VACV E9 pol inh 102.3.
Screening CC(=O)Oc1cccnc1I returned VACV E9 pol inh 110.2.

Two entries drawn at random from those above, as already listed:
For CC1(C)CN(c2cccc(N3CC(C)(C)C3=O)n2)C1=O the results were VACV E9 pol inh 101.4.
For Cc1ccc(Cl)cc1-n1nnc(-c2nc(-c3ccc4c(c3)OCO4)no2)c1N the results were VACV E9 pol inh 108.0.

Remaining list, next part
Screening CN(C)c1ccc(C2C3C=CC(C3)C2(C#N)C(=O)O)c(Br)c1 (stereo not given) returned VACV E9 pol inh 98.0.
CCCNCC(O)COc1ccccc1 (stereo not given) (tested in a mixture with another compound) was read as VACV E9 pol inh 97.3.
Screening CC1CC(=O)N(N(C)C)C(C#N)(C#N)C1(C#N)C#N (stereo not given) returned VACV E9 pol inh 101.9.
For O=C1CCC(c2cccs2)=NN1CO the results were VACV E9 pol inh 93.1.
`CCN(C(=O)c1ccc(OC(C)=O)cc1)c1ccccc1C` gave VACV E9 pol inh 100.7.
Cc1ccc(-c2cc(=O)c3ccc4ccccc4c3o2)cc1 was read as VACV E9 pol inh 98.9.
O=C(CN1C(=O)CC(c2ccccc2)S(=O)(=O)c2ccccc21)Nc1ccccc1C(F)(F)F (stereo not given) was read as VACV E9 pol inh 103.4.
`S=C(NCc1ccco1)NCC1CC(c2ccccc2)=NO1` (stereo not given) gave VACV E9 pol inh 88.0.
`Cc1ccc(C)n1CC(F)(F)F` gave VACV E9 pol inh 99.3.
For O=C(Nc1ccccc1)Nc1cccc(-c2nnco2)c1 the results were VACV E9 pol inh 100.6.
Screening N#CCCN1CCN(S(=O)(=O)c2ccc(C#N)cc2)CC1 returned VACV E9 pol inh 103.8.
Screening COc1ccccc1C(=O)Nc1sc2c(c1C(N)=O)CC(C)CC2 (stereo not given) returned VACV E9 pol inh 100.1.
`Nc1ncnc2c1ncn2C1O[C@H](COP(=O)(O)O)[C@@H](O)[C@H]1O` (stereo not given in full) gave VACV E9 pol inh 100.1.
Cc1cc2nc(C)n(CCCNC(=O)Nc3cccc4ccccc34)c2cc1C was read as VACV E9 pol inh 90.1.
For CN1CCN(c2ccc(Nc3ccnc4cc(Cl)ccc34)cc2Cl)CC1 the results were VACV E9 pol inh 100.3.
O=S(=O)(/N=C(\Nc1cccc2ccccc12)c1ccccc1)c1ccccc1 was read as VACV E9 pol inh 99.6.
For CCc1ccc(S(=O)(=O)NCCc2cn3ccccc3n2)s1 the results were VACV E9 pol inh 98.0.
`Cc1ccc2cc3c(nc2c1)N(Cc1ccco1)CC3` gave VACV E9 pol inh 94.4.
Screening O=C1CCC(=O)N1Nc1nc2ccccc2c2nc(-c3ccccc3)nn12 returned VACV E9 pol inh 97.5.
O=C(CN1C(=O)c2ccccc2S1(=O)=O)c1ccc(Cl)cc1 was read as VACV E9 pol inh 103.7.

A draw from above in order of length of the SMILES, low to high.
CCCNCC(O)COc1ccccc1 (stereo not given) (tested in a mixture with another compound) was read as VACV E9 pol inh 97.3.
For O=C1CCC(c2cccs2)=NN1CO the results were VACV E9 pol inh 93.1.
`Cc1ccc2cc3c(nc2c1)N(Cc1ccco1)CC3` gave VACV E9 pol inh 94.4.
For O=C(Nc1ccccc1)Nc1cccc(-c2nnco2)c1 the results were VACV E9 pol inh 100.6.
`S=C(NCc1ccco1)NCC1CC(c2ccccc2)=NO1` (stereo not given) gave VACV E9 pol inh 88.0.
Cc1ccc(-c2cc(=O)c3ccc4ccccc4c3o2)cc1 was read as VACV E9 pol inh 98.9.
Screening N#CCCN1CCN(S(=O)(=O)c2ccc(C#N)cc2)CC1 returned VACV E9 pol inh 103.8.
Screening CC1CC(=O)N(N(C)C)C(C#N)(C#N)C1(C#N)C#N (stereo not given) returned VACV E9 pol inh 101.9.
Screening COc1ccccc1C(=O)Nc1sc2c(c1C(N)=O)CC(C)CC2 (stereo not given) returned VACV E9 pol inh 100.1.
For CN1CCN(c2ccc(Nc3ccnc4cc(Cl)ccc34)cc2Cl)CC1 the results were VACV E9 pol inh 100.3.
Screening O=C1CCC(=O)N1Nc1nc2ccccc2c2nc(-c3ccccc3)nn12 returned VACV E9 pol inh 97.5.
`Nc1ncnc2c1ncn2C1O[C@H](COP(=O)(O)O)[C@@H](O)[C@H]1O` (stereo not given in full) gave VACV E9 pol inh 100.1.
O=C(CN1C(=O)CC(c2ccccc2)S(=O)(=O)c2ccccc21)Nc1ccccc1C(F)(F)F (stereo not given) was read as VACV E9 pol inh 103.4.

Going on with the list:
For CCOc1ccc(-n2c(SCC(=O)NCc3ccco3)nc3n[nH]c(C)c3c2=N)cc1 the results were VACV E9 pol inh 98.7.
Screening Cc1c(C(=O)/C(C#N)=C/N(C)C)sc2ccc(Cl)cc12 returned VACV E9 pol inh 97.6.
`Cc1ccc2[nH]c(-c3ccccc3)c(CN3CCCC3)c(=O)c2c1` gave VACV E9 pol inh 100.4.
For O=C(c1ccc(Br)cc1)C(C(=O)N1CCCCC1)n1ccccc1=O (stereo not given) the results were VACV E9 pol inh 97.3.
For O=C(CSc1ncn[nH]1)Nc1cccc(Br)c1 the results were VACV E9 pol inh 82.4.
Screening Cc1ccc2c(N)c(C(=O)c3ccc(Cl)cc3)sc2n1 returned VACV E9 pol inh 100.6.
Screening CC(=O)Nc1nc2c(s1)CCc1ccccc1-2 returned VACV E9 pol inh 103.2.
For Cc1noc(C)c1C(=O)Nc1nnc(SCC(=O)O)s1 the results were VACV E9 pol inh 96.0.
CC(=O)N1CC(C)Sc2cc(S(=O)(=O)NCc3ccco3)ccc21 (stereo not given) was read as VACV E9 pol inh 105.0.
For Cc1nc(N2CCCC2)c2ccsc2n1 the results were VACV E9 pol inh 89.6.
For Cc1ccc(C(=O)CC(NCCN2CCOCC2)C(=O)O)cc1 (stereo not given) the results were VACV E9 pol inh 100.2.
For O=C(NCCO)N1c2ccccc2Sc2ccccc21 the results were VACV E9 pol inh 99.4.
Screening c1coc(CNc2nc[n+]3c4c2ncn4CC3)c1 returned VACV E9 pol inh 96.0.
`Cc1ccc(S(=O)(=O)NC(=O)N(C)C2CCCCC2)cc1` gave VACV E9 pol inh 72.3.
Screening CCN1C[C@@]2(COC)C3[C@@H](OC)[C@H]4[C@@H]1[C@]3(C(OC)C[C@H]2O)C1C[C@@]2(O)[C@H](OC(=O)c3ccccc3)C1[C@]4(OC(C)=O)[C@@H](O)[C@@H]2OC (stereo not given in full) returned VACV E9 pol inh 97.7.
CC(C)C(C)(C#N)NC(=O)c1cccnc1Oc1ccc(Cl)cc1 (stereo not given) was read as VACV E9 pol inh 100.1.
CCCSC1=N/C(=C/c2cccs2)C(=O)N1c1ccc(F)c(Cl)c1 was read as VACV E9 pol inh 83.0.
Cc1ccc(C(=O)NC(C)C(c2cccs2)N2CCCC2)s1 (stereo not given) was read as VACV E9 pol inh 100.6.
For CC(=O)NCCc1nc2ccccc2[nH]1 the results were VACV E9 pol inh 98.1.
`CN1C(C(=O)Nc2ccccn2)=C(O)c2ccccc2S1(=O)=O` gave VACV E9 pol inh 97.7&99.7.
CSc1c(C#N)c(-c2cccs2)nn1C(=O)C(C)(C)C was read as VACV E9 pol inh 100.0.
Screening NC(=O)Cn1nnc(-c2ccccc2)n1 returned VACV E9 pol inh 100.2.
For CCCCCCCCCCCCCCCCOCC(COP(=O)([O-])OCC[N+](C)(C)C)OC (stereo not given) the results were VACV E9 pol inh 99.9.
`O=C(c1ccccc1)c1cccc(N=Cc2c(O)[nH]c(=O)[nH]c2=O)c1` gave VACV E9 pol inh 102.0.
O=C(CCSc1nc(-c2ccco2)cc(C(F)(F)F)n1)NCc1ccncc1 was read as VACV E9 pol inh 94.4.
`OC(CCN1CCOCC1)(c1ccc(Cl)cc1)C1CCCCC1` (stereo not given) gave VACV E9 pol inh 99.4.
Screening COc1ccc(C2C(C#N)=C(N)OC3NN=C(C)C32)cc1COc1cccc(Cl)c1 (stereo not given) returned VACV E9 pol inh 100.1.
For CN(C)c1ccc(NC(=O)Nc2cccs2)cc1 the results were VACV E9 pol inh 106.4.
`O=C(CC(Sc1ccccc1C(=O)O)c1ccc(F)cc1)c1ccc(F)cc1` (stereo not given) gave VACV E9 pol inh 96.8.
`Cc1c(/C=C/C(=O)Oc2ccc(C#N)cc2)sc2ccccc12` gave VACV E9 pol inh 105.1.
For CCOc1ccc(C2=NCCNC3=C2C(c2ccccc2)N(c2ccccc2)C3=O)cc1 (stereo not given) the results were VACV E9 pol inh 99.8.
For CCSc1nnc(CSc2ncccn2)n1C the results were VACV E9 pol inh 95.3.
For Cc1ccc2nc(-c3ccc(N4C(=O)C=CC4=O)cc3)sc2c1 the results were VACV E9 pol inh 95.6.
Screening O=C(Cn1ncn2nc(-c3ccco3)cc2c1=O)NCc1ccccc1 returned VACV E9 pol inh 101.8.
COC(=O)c1c2c(n3cc4ccccc4cc13)C(=O)c1ccccc1C2=O was read as VACV E9 pol inh 99.2.
`COc1ccccc1NS(=O)(=O)c1ccc2c(c1)CCN2C(=O)CCC(=O)O` gave VACV E9 pol inh 94.8.
For Cc1ccsc1C=Nc1ccc(Nc2ccccc2)cc1 the results were VACV E9 pol inh 101.7.
Screening Nc1c(-c2ccccc2)cnn1-c1ccccc1 returned VACV E9 pol inh 103.0.
CCN1/C(=C\C(=S)Nc2ccccc2)Sc2ccccc21 was read as VACV E9 pol inh 103.4.
`COc1cccc2sc(N)nc12` gave VACV E9 pol inh 100.3.
For CC(C)(S)C(N)C(=O)O (stereo not given) the results were VACV E9 pol inh 102.7.
`N#Cc1cn(-c2ccccc2)nc1-c1ccccc1` gave VACV E9 pol inh 101.3.
For Cc1ccc(S(=O)(=O)N(C)C2CCCCC2)cc1-c1nnc2c3ccccc3c(C)nn12 the results were VACV E9 pol inh 98.8.
For CCOc1ccccc1N1C(=O)CC(N(O)c2ccccc2)C1=O (stereo not given) the results were VACV E9 pol inh 100.1.
For CN(C)C(=O)N1CCNCC1 the results were VACV E9 pol inh 99.4.
Screening Cn1c(=O)cc(N2CCOCC2)c2c(=O)n(-c3ccccc3)c(=O)n(-c3ccccc3)c21 returned VACV E9 pol inh 100.5.
CC(=O)Nc1ccc2oc3ccccc3c2c1 was read as VACV E9 pol inh 100.3.
For CC(=O)NCCCc1nc2ccccc2[nH]1 the results were VACV E9 pol inh 98.8.
Cc1ccc(S(=O)(=O)N2CCCC2C(=O)O)cc1 (stereo not given) was read as VACV E9 pol inh 99.4.
`OCc1cccn1-c1ncc(C(F)(F)F)cc1Cl` gave VACV E9 pol inh 108.3.
For CCCn1c(-c2cccs2)n[nH]c1=O the results were VACV E9 pol inh 103.1.
Cc1ccc2occ(CC(=O)Nc3ccc(F)cc3)c2c1 was read as VACV E9 pol inh 107.7.
For CC(=O)Nc1c(O)[nH]c2ccc(C)cc12 the results were VACV E9 pol inh 99.1.
For COc1ccc(CCNC(=O)C2CCCN(S(=O)(=O)c3cccc4nonc34)C2)cc1OC (stereo not given) the results were VACV E9 pol inh 100.7.
Screening Cc1ccc(OC(=O)Nc2ccccc2)cc1 returned VACV E9 pol inh 98.8.
`O=C(/C=C/c1cccc(C(F)(F)F)c1)NCc1ccccc1` gave VACV E9 pol inh 77.8.
O=C(O)Cc1c(-c2ccccc2)c2cc(Cl)ccc2[nH]c1=O was read as VACV E9 pol inh 94.4.
`ONC=Nc1ccc2nnc(-c3ccccc3)n2n1` gave VACV E9 pol inh 95.8.
Screening CCOc1ccc2nc(-c3nc4ccccc4s3)sc2c1 returned VACV E9 pol inh 100.7.
For CCCCC/C=C\C[C@@H](O)/C=C/C=C/C=C\[C@@H](O)CCCC(=O)O the results were VACV E9 pol inh 98.5.
`Cc1ccc2[nH]c(=O)c3cc(C(=O)NCC4COc5ccccc5O4)sc3c2c1` (stereo not given) gave VACV E9 pol inh 97.8.
Screening CCCCC[C@H](O)/C=C/[C@H]1[C@H](O)CC(=O)[C@@H]1C/C=C\CCCC(=O)O returned VACV E9 pol inh 99.9.
Screening CCC(C)NC(=O)c1ccc(CS(=O)(=O)Cc2ccc(Cl)cc2)o1 (stereo not given) returned VACV E9 pol inh 90.8.
CC(C)NC(=O)CCCn1c(=S)[nH]c2ccc(Br)cc2c1=O was read as VACV E9 pol inh 94.0.

Screens deposited in PubChem BioAssay by ICCB-Longwood Screening Facility, Harvard Medical School.

These rows are one share of the data. The share of hits here may be higher or lower than overall.
